# From PubChem BioAssay
# INS promoter inh – TRM-6 insulin promoter activity inhibition | TRM-6 cells (human fetal islet line), insulin promoter-eGFP reporter, imaging; reporter expression induced with tamoxifen | AID 1273 | inhibition, % at 2 µM | 130,000 compounds, 0.9% hits;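 active = inhibition above the mean plus 3 SD, with well images judged a real hit on visual review, cut at about 60% in these data, passing the limit was not always enough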
# RGS16-Gao HTS – RGS16-Galphao interaction regulator (human) | O15492+P09471 | bead-based flow cytometry RGS16-Galphao binding, fluorescence; actives lie on both sides | binding response (% of control), % at 10 µM | 220,000 compounds, 0.38% hits | AID 1441;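 active = below 25% or above 175%, edge rows of some plates excepted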;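 also: Galphao activated by GDP with aluminum fluoride before binding; 100% = wells without compound and 0% = beads without RGS; some results beyond the cut were filed as inactive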
# Target sequence (O15492 whole entry, looked up): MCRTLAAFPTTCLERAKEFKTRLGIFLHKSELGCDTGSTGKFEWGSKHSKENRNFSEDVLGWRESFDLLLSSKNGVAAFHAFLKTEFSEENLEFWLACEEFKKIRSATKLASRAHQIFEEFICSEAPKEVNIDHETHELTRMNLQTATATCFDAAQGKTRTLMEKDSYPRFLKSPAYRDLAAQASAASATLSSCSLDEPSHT
# Target sequence (P09471 whole entry, looked up): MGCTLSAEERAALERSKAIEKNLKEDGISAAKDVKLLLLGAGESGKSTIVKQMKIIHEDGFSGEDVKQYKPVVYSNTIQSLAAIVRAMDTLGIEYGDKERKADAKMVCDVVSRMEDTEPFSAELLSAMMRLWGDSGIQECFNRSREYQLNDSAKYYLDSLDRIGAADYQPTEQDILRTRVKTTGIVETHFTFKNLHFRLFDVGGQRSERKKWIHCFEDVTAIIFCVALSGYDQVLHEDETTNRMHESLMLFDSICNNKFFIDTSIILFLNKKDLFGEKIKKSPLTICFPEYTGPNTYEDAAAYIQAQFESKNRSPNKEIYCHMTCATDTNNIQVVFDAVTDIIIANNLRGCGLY
# PKD1 kinase inh – inhibitors of human PKD1 kinase; inhibition, %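 (about 10 µM by stock and volumes)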; PKD1 kinase fluorescence polarization assay; 200,000 compounds, 0.056% hits;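 active = inhibition of 50% or more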;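 also: controls were vehicle for no effect and a reference inhibitor for full effect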
# GALR2 ag – agonists of human galanin receptor 2 (GALR2); 140,000 compounds, 0.48% hits; O43603; GALR2-expressing cells, agonist activation read-out; AID 803; activation, %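 (tested at 5 µM)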;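 active = above mean plus 3 SD of all compounds, about 5% in these data, not always enough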;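 also: 0% = vehicle buffer wells and 100% = reference agonist at full effect; tested in CHO reporter cells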
# Target sequence (O43603 whole entry, looked up): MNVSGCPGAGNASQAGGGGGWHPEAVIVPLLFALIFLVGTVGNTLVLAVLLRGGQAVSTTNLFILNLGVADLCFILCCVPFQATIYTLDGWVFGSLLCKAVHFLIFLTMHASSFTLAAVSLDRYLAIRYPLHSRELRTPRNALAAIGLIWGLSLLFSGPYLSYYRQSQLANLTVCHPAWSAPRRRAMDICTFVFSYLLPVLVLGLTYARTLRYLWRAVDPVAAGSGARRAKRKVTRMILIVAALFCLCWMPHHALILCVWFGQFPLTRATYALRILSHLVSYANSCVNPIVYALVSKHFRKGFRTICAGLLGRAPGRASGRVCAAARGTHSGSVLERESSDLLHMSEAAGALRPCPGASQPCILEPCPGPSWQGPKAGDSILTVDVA
# HSV augment – increases HSV replication in cells; HSV replication augmentation in cells, fold increase; maximum fold increase; 220,000 compounds, 0.005% hits;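 active = peak rise of 1.5-fold or more in the series; tested in PC3 cells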;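 also: first round at 10 µM; read as green reporter fluorescence; hits show the peak of a series up to 25 µM; 1 = signal of infected wells without compound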
# INS promoter inh cell count – second read-out of INS promoter inh, no call of its own (marks repeat the call); normalized cell count, %; measured here: cell count, toxicity; reference of the scale not given here;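 cells exposed to compound for 48 h; stained nuclei by imaging scaled within each plate; lower means fewer cells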
# HSV augment primary fold – further read-out of HSV augment, marked with its call; fold increase; compound at 10 µM; measured here: primary screen fold increase 10 uM; tested in PC3 cells;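 GFP signal in the first replicate; 1 = infected wells without compound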
# An asterisk follows results filed as active; i = inactive; · = not tested or not shown. Compounds were not picked by outcome, and some 1.3% of all compounds hit somewhere here.
smiles	INS promoter inh	INS promoter inh cell count	HSV augment	GALR2 ag	PKD1 kinase inh	HSV augment primary fold	RGS16-Gao HTS
O=C(c1ccccc1)N1CCN(c2ncnc3c2cnn3-c2ccccc2)CC1	-63	117	i	-1.1	-6	0.89	103
CCOc1ccc(NC(=O)CC2CC(C)(C)OC2=O)cc1 (centres undefined)	·	·	i	-2.4	-5	0.89	95
CC(NC(=O)Nn1cnnc1)(C(F)(F)F)C(F)(F)F	31	93	i	-0.5	-5	0.97	102
N#CC(c1ccccc1)N(CCCCl)C(=O)c1ccccc1 (centres undefined)	-14	62	i	-1.1	6	0.97	110
O=c1nc2s/c(=C\c3ccc(-c4ccccc4[N+](=O)[O-])o3)c(=O)n2nc1-c1ccccc1	-6	65	i	-1.0	-12	1.1	106
CC1CCCCN1S(=O)(=O)c1cnc(Cl)c(Br)c1 (centres undefined)	-7	106	i	-1.3	-10	0.98	112
CCOC(=O)CCC(=O)N1CCOCCOCCN(C(=O)CCC(=O)OCC)CCOCCOCC1	0	88	i	0.3	0	0.95	97
O=c1c(Br)c(NCc2ccccc2)cnn1-c1ccc(F)cc1	40	100	i	·	4	0.8	108

# Sorted by SMILES length (smallest number first): some entries from above
smiles	INS promoter inh	INS promoter inh cell count	HSV augment	GALR2 ag	PKD1 kinase inh	HSV augment primary fold	RGS16-Gao HTS
CC1CCCCN1S(=O)(=O)c1cnc(Cl)c(Br)c1 (centres undefined)	-7	106	i	-1.3	-10	0.98	112
O=C(c1ccccc1)N1CCN(c2ncnc3c2cnn3-c2ccccc2)CC1	-63	117	i	-1.1	-6	0.89	103
O=c1nc2s/c(=C\c3ccc(-c4ccccc4[N+](=O)[O-])o3)c(=O)n2nc1-c1ccccc1	-6	65	i	-1.0	-12	1.1	106

# Later entries
smiles	INS promoter inh	INS promoter inh cell count	HSV augment	GALR2 ag	PKD1 kinase inh	HSV augment primary fold	RGS16-Gao HTS
Cc1ccc(SCCNC(=O)c2ccccc2C)cc1	29	83	i	-0.9	-6	1.1	-491
C=CCn1cnc2c(nnn2-c2ccc(C)c(C)c2)c1=O	-18	128	i	·	-4	1	93
NC(=O)C1=C[C@H](c2ccc3c(c2)OCO3)C[C@H](OCc2ccc(CO)cc2)O1	·	·	i	·	4	0.99	90
Cc1cc(C)c2c(c1)/C(=N/Nc1ccc(S(N)(=O)=O)cc1[N+](=O)[O-])CCC2	·	·	i	·	-4	0.92	102
O=C(Nc1ccc(Cl)cc1)OCc1cncs1	-12	128	i	-0.2	5	1	124
COc1ccc(CCN(Cc2cccs2)S(=O)(=O)c2ccc(S(=O)(=O)N(C)C3CCCCC3)cc2)cc1OC	·	·	i	0.1	4	1	102
CCOC(=O)c1cc(=O)c2c([N+](=O)[O-])ccc(OC)c2o1	·	·	i	0.4	2	1.1	38
O=C(N/N=C/c1ccc(OC(F)F)cc1)C1=COCCO1	-75	112	i	·	-6	1	100
CCCc1cc(=O)[nH]c(SCC(=O)c2cc(C)n(CCOC)c2C)n1	·	·	i	-2.1	-15	1	103
COc1cc(/C=C/c2noc(-c3ccccc3O)n2)cc(OC)c1OC	38	123	i	-1.1	2	1	99
COc1ccc(CCC(N)=O)cc1OC	31	45	i	-1.2	2	0.88	118
c1cc(-c2nn[nH]n2)ccc1CN1CCCCC1	45	113	i	0.1	0	0.99	108
Cc1cc(C(=O)CC#N)c(C)n1-c1c(C)n(C)n(-c2ccccc2)c1=O	0	121	i	·	-2	0.96	106
CCOC(=O)c1ccc(NC(=S)Nc2ccc3[nH]c(=O)[nH]c3c2)cc1	·	·	i	·	·	1	106
O=C1c2ccccc2C(Nc2cccnc2)N1Cc1ccccc1Cl (centres undefined)	-129	61	i	-0.6	11	0.91	109
COc1cccc(C(c2c(NC(=O)c3ccccc3)sc(C)c2C)N2CCN(C)CC2)c1 (centres undefined)	·	·	i	1.1	-2	1	101
CC(=O)Oc1ccc(Cn2cnc3cc4ccccc4cc32)cc1	19	102	i	-1.6	2	0.73	96
Cc1nnc(N(C)C(=O)c2ccc3c(c2)OCO3)s1	·	·	i	·	-4	1	74
O=C(CSc1nc2ccccc2n1CC(=O)N1CCCC1)NCc1ccc2c(c1)OCO2	·	·	i	0.2	-1	0.95	99
O=S(NC1CCCCC1)C12CC3CC(CC(C3)C1)C2 (centres undefined)	0	103	i	-2.8	2	0.98	108
CN(CC(=O)Nc1ccc(N2CCOCC2)cc1)CC(=O)Nc1ccc(N2CCOCC2)cc1	·	·	i	·	·	0.94	93
O=C1CCSc2ccc(Cl)cc2N1Cc1cccc(Cl)c1	-7	93	i	-0.5	1	1	91
O=C(NCCc1ccc(Cl)cc1)C1CCC(=O)N1Cc1ccc(F)cc1 (centres undefined)	·	·	i	-2.1	-6	0.86	92
Nc1nonc1-n1nnc(C(=O)N/N=C/c2ccccc2)c1CSc1ccc(Cl)cc1	0	71	i	-0.9	-10	1.1	93
Cc1ccc(-n2c(-c3c(-c4ccccc4)noc3C)n[nH]c2=S)cc1	14	106	i	-1.7	0	0.89	95
c1ccc(-c2ccc(-c3ccccn3)s2)nc1	·	·	i	·	·	0.94	100
O=C(COC(=O)c1cc(=O)[nH]c(=O)[nH]1)NCc1ccccc1	·	·	i	-0.7	0	1.1	92
CCOC(=O)c1sc(C)c2c(=O)n(Cc3ccc(Cl)cc3)cnc12	-65	65	i	·	0	0.99	88
C#CCOc1nc(C)cc(C)c1S(=O)(=O)c1ccccc1C	-21	70	i	·	-2	0.95	106
CS(=O)(=O)N1CCN(C(=O)c2cc(-c3ccncc3)nc3ccc(Cl)cc23)CC1	11	114	i	-5.7	6	0.98	88
Oc1c(Cl)cc(Cl)cc1CNn1cnnc1	·	·	i	·	-4	0.97	103
CC(=O)OC(CC(=O)O)C[N+](C)(C)C (centres undefined)	50	79	i	-1.3	-4	0.83	105
CCOc1ccc(Cl)cc1S(=O)(=O)NCc1ccccn1	·	·	i	·	-2	0.91	100
COc1cc(Cl)c(C)cc1NC(=O)c1cccc(OC)c1OC	·	·	i	·	-2	1	98
COC(=O)c1cccc(S(=O)(=O)N2CCC(NC(=O)NC34CC5CC(CC(C5)C3)C4)CC2)c1	·	·	·	-2.1	0	·	87
N#Cc1cc2c(nc1SCc1ccccc1)CCC2	-388	80	i	-2.5	-3	0.95	115
O=C(NCC1CCCCC1)c1cc(S(=O)(=O)N2CCCCC2)ccc1N1CCOCC1	-41	88	i	·	-2	0.97	99
COc1cccc(-c2ccc(-c3noc(-c4ccccc4F)n3)c(OC)n2)c1	39	60	i	-0.1	-9	1	105
COC(=O)C/C=C/[C@@H](C)[C@@H](/C=N/OC[C@H]1O[C@H](c2ccccc2)C=C[C@@H]1Oc1ccc(OC)cc1)NS(=O)(=O)c1ccc(C)cc1	5	92	·	-0.6	0	·	97
C=C(C)CN(CC)C(=O)CSc1nc2ncc(Cl)cc2[nH]1	·	·	·	-0.1	8	·	75
COc1ccc(C(C)=O)cc1COc1ccccc1[N+](=O)[O-]	-83	105	i	·	-3	0.97	109
Cc1nnc(NC(=O)C2CCN(c3cnccn3)CC2)s1	39	58	i	-1.1	6	0.89	106
CC(=O)n1nc(-c2ccccc2)nc1NCc1ccc(N(C)C)cc1	·	·	i	·	-9	0.93	104
O=C1c2ccccc2-c2onc3c(Oc4ccccc4)cc(O)c1c23	-48	71	·	-1.6	-1	·	52
CC(C)(C)C(=O)Nc1ccc2c(c1)-c1cc(NC(=O)C(C)(C)C)ccc1C2	·	·	i	-0.9	22	0.91	102
Cc1nc(-c2cccc(S(=O)(=O)N3CCC(C)CC3)c2)cs1	10	85	i	-2.3	-14	1.1	101
COc1ccccc1C1CC(=O)n2c(nc(-c3ccccc3)c2-c2ccccc2)S1 (centres undefined)	-22	165	i	-1.2	1	1.1	101
CS(=O)(=O)N1CCN(c2ccccc2NC(=O)c2ccc(Br)o2)CC1	57	59	i	-0.7	96*	1.1	108

# PKD1 kinase inh, what is marked active above
SMILES | HSV augment | GALR2 ag | PKD1 kinase inh | HSV augment primary fold | RGS16-Gao HTS
CS(=O)(=O)N1CCN(c2ccccc2NC(=O)c2ccc(Br)o2)CC1 | i | -0.7 | 96* | 1.1 | 108

# (next part)
smiles	INS promoter inh	INS promoter inh cell count	HSV augment	GALR2 ag	PKD1 kinase inh	HSV augment primary fold	RGS16-Gao HTS
Oc1ccc2ccccc2c1CN1CCN(c2ccccc2)CC1	46	114	i	-2.5	-9	1	98
Cc1ccc(CCNC(=O)C2CCCN(C(=O)N(C)C)C2)cc1 (centres undefined)	-1	95	i	-2.1	-4	0.99	81
COC(=O)C(C)(C)ONC(=O)Nc1ccccc1Cl	·	·	i	·	1	1.2	98
C=CCN(CC=C)C(=O)Cc1ccc(F)cc1	41	100	i	-4.0	1	0.87	97
O=C(CSc1ncccn1)NCc1ccccc1Cl	·	·	i	-1.1	-6	0.87	74
COC(=O)CCSCC(=O)N1N=C(c2ccc(Br)cc2)CC1c1cccc(OC)c1OC (centres undefined)	-387	52	i	·	-4	0.99	99
CC(N=C1NS(=O)(=O)c2ccccc21)C(=O)N1CCc2ccccc2C1 (centres undefined)	·	·	i	·	-5	1.1	101
O=C(CCC(=O)c1ccc(F)cc1)Nc1ccccc1Cl	-21	59	i	-1.8	-18	0.87	109
COc1cccc(C(=O)OCn2nnc3ccccc3c2=O)c1	44	147	i	-1.9	-2	1.1	103
COc1ccc(C(=O)NC(=S)Nc2ccc([N+](=O)[O-])cc2C)cc1OC	-9	157	i	-2.7	1	0.98	103
Cc1nn(-c2ccccc2)c(Cl)c1C(=O)Nc1nnc(C2CCCCC2)s1	35	133	i	-2.0	-2	0.87	100
COc1ccc(OC)c(NC(=O)C(=O)NNC(=O)c2cccs2)c1	·	·	i	0.0	-12	1.1	101
O=C(Nc1ccccc1)C1=C[C@H](c2ccc(C(F)(F)F)cc2)C[C@H](OCc2ccc(CO)cc2)O1	·	·	i	·	·	1.2	86
CNC(=O)Nc1ccc2nc(C)sc2c1	·	·	i	·	4	0.76	105
O=C(CSc1nnc(-c2cccc(S(=O)(=O)N3CCCC3)c2)n1-c1ccccc1)Nc1ccc(C(=O)O)cc1	·	·	i	·	13	1	103
CCCNS(=O)(=O)c1ccc(NC(=O)Cc2cccs2)cc1	6	109	i	-0.3	-8	0.7	104
COc1cc(C)c(C(C)C)cc1S(=O)(=O)N1CCN(C)CC1	29	168	i	-0.5	4	0.77	98
S=c1[nH]nc(CN2CCCC2)n1Cc1ccccc1	-171	106	i	·	3	0.87	27
O=C(Cc1ccc(S(=O)(=O)N2CCCC2)s1)NC1CCCCCC1	-45	148	i	-0.7	2	1	90
COc1ccc(OC)c(C2=NOC(C(=O)Nc3cccc(C(C)=O)c3)C2)c1 (centres undefined)	·	·	i	-1.2	-1	0.91	118
Cn1c2ccc(F)cc2c2ncn(Cc3ccccn3)c(=O)c21	·	·	i	·	·	0.97	97
O=C(O)C1CCC(CNCc2cccnc2)CC1 (centres undefined)	-14	163	·	-1.0	3	·	·
O=C1C2CC=CCC2C(=O)N1CC1CCCO1 (centres undefined)	53	79	i	-2.5	24	0.58	35
Cc1nnc(SCC(=O)NC(=O)NC2CCCC2)n1N	-9	65	i	-2.5	-1	0.9	104
O=C(NC1CC1)c1ccc2snnc2c1	·	·	i	·	-1	0.98	103
Cc1ccc(C(=O)OCC(=O)Nc2sc3c(c2C#N)CCC3)cc1	-55	110	i	0.0	-12	0.94	104
FC(F)(F)Oc1ccc(Nc2nc3ccccc3o2)cc1	31	159	·	1.7	-5	·	100
CCOC(=O)/C(=N/Nc1ccc(Cl)cc1)Sc1nnnn1-c1ccc(C)cc1	-11	127	i	-1.5	3	1	101
COC(=O)/C(=C\c1ccc2c(c1)c1ccccc1n2C)NC(=O)c1ccccc1	3	52	i	-0.7	-19	0.89	100
CCOc1cc(NC(=S)NCC2CCCO2)c(OCC)cc1NC(=O)c1ccc(C)cc1 (centres undefined)	37	123	i	0.5	0	0.84	105
N#CC(C#N)=Cc1ccc(-c2ccc(S(=O)(=O)N=C(N)N)cc2)o1	37	129	i	-0.5	-3	1.2	102
CCN1C(=O)C(O)(CC(=O)c2ccc(-n3cccc3)cc2)c2ccccc21 (centres undefined)	·	·	i	-0.9	-3	0.63	99
CCC(C)C(=O)OCC1(c2ccc(C)cc2OC(=O)C(C)C)CO1 (centres undefined)	·	·	i	·	·	0.77	107
CC1(c2nnc(-c3ccc(F)cc3)o2)CC(c2ccc(Cl)cc2)=NO1 (centres undefined)	·	·	i	·	·	0.87	99
CC1CCN(C(=S)NC(=O)C2CCCCC2)CC1	-3	46	i	-2.0	-3	0.89	103
